Screening results (PubChem)
A1 inh: inhibitors of the anti-apoptotic protein A1, read as caspase activation; MEF A1-2A-BIM cells, Caspase-Glo 3/7 luminescence, 3 h; percent of clofoctol response, vehicle zero; caspase activation, % (no concentration beside the values); 330,000 compounds, 0.066% hits;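 active = over half of replicate activation scores above 10%, or exactly half above 10 with the replicate mean above 10; inconclusive = replicate mean below 10 yet half the replicates above 10; inactive = over half of replicates below 10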;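 note: wells of about 30 µL received 50 nL stock; many hits fall short of the cut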
LANA-H2A inh: blocks KSHV LANA binding to histone H2A/H2B; Q9QR71; inhibition, % (test concentration not listed); 320,000 compounds, 0.6% hits; cell-free LANA-H2A/H2B peptide, fluorescence polarization; in the data active = inhibition mostly above about 10%, no sharp cut-off; inactive = mostly below about 6.7%;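 note: stock transfer was 7.5 nL into about 10 µL; 0% = median of vehicle wells and 100% = median of positive control wells; one replicate is shown; the record names a cut of 25% in any replicate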
B2AR ag: human beta-2 adrenergic receptor agonism by FAP; P07550; Am2.2-beta2AR cells, FAP receptor internalization, flow cytometry; reference of the scale not given here; response, % (concentration not given with the values); 340,000 compounds, 0.43% hits;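 active = response above a set limit, near 3 SD of response in nonfluorescent compounds, cut at about 42% in these data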;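 note: stock transfer was 100 nL into about 11 µL; a reference agonist was the positive control; negative values mostly stem from fluorescent compounds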
Target sequence (P07550 whole entry, looked up): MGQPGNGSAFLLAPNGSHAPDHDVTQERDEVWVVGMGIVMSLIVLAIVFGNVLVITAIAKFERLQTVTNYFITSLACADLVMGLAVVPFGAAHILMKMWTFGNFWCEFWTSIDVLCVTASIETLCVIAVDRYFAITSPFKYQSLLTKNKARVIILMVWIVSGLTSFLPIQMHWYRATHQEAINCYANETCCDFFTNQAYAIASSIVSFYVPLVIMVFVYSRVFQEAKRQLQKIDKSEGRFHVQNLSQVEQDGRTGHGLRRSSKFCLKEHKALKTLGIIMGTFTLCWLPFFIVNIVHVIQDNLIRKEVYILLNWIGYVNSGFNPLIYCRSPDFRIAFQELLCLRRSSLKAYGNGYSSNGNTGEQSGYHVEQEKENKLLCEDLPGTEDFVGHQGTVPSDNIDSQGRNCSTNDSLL
Calb FLC: C. albicans growth modulation with fluconazole; C. albicans CaCi-2 (fluconazole-resistant clinical isolate) + fluconazole, Alamar Blue growth, 48 h; growth inhibition, % (no concentration beside the values); 300,000 compounds, 0.57% hits; AID 1979;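 active = most replicates above 75%; inconclusive = exactly half above 75%; inactive = most below 75%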;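 note: all wells also contain fluconazole at 8 µg/ml as a sub-toxic cotreatment; 0% = median of DMSO wells and 100% = median of geldanamycin control wells; wells of about 8 µL received 7.5 nL stock; the first replicate is given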
T cruzi repl: blocks replication of Trypanosoma cruzi. T. cruzi beta-gal in NIH3T3, luminescence, 90 h. inhibition, % (test concentration not listed). 300,000 compounds, 1.4% hits. AID 1885;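 active = mean inhibition across valid replicates above about 55%, limit read from the data; inconclusive = mean below that limit but half or more replicates reach it; inactive = mean below it, under half of replicates reach it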;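 note: signal also drops with host cell toxicity which is not excluded here; 0% = plate median of DMSO wells and 100% = zero luminescence signal; higher percent means less beta-gal luminescence so fewer parasites; stock transfer was 50 nL into about 50 µL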
RanGTP-Impb inh: inhibitors of RanGTP-importin-beta interaction, primary screen, biochemical, FRET, CFP-Ran, YFP-importin-beta, homogeneous | 300,000 compounds, 1.1% hits | AID 2216 | inhibition, % (no concentration beside the values) | cell-free CFP-Ran/YFP-importin-beta FRET ratio;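 active = most replicates above 15%; inconclusive = exactly half above 15%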;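 note: 0% = DMSO wells and 100% = Ran loaded with GDP instead of GTP; wells of about 40 µL received 100 nL stock; the first replicate is given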
UCH37 inh: human UCH37 deubiquitinating enzyme inhibition; purified proteasome/UCH37, Ub-AMC cleavage fluorescence; inhibition, % (test concentration not listed); Q9Y5K5; 330,000 compounds, 0.33% hits; AID 588478;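 active = mean of two replicates above 20%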;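 note: 0% = compound-free wells with enzyme and 100% = wells lacking proteasome; stock transfer was 100 nL into about 20 µL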
Target sequence (Q9Y5K5 whole entry, looked up): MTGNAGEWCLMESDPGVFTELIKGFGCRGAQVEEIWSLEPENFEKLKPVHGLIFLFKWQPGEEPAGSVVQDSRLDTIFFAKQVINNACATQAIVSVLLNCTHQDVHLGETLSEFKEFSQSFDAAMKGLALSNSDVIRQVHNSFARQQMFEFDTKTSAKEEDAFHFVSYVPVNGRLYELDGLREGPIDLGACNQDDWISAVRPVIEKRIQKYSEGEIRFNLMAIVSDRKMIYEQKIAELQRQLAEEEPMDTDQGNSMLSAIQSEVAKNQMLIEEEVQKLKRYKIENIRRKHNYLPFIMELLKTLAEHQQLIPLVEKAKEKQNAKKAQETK
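Material: human UCH37 enzyme supplied as purified proteasome complex. Measure: % inhibition of Ub-AMC cleavage fluorescence. Medium: pH 7.4 Tris-HCl (50 mM) with ovalbumin, ATP-MgCl2, DTT. Times: 30 min preincubation with enzyme, 25 min cleavage at room temperature. Detection: AMC fluorescence intensity at 355/460 nm.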
Beta apoptosis: beta cell apoptosis inhibition | INS-1E cytokine-induced death, ATP luminescence, 48 h; percent of positive-control rescue, neutral wells zero | protection from apoptosis, % (test concentration not listed) | 300,000 compounds, 0.8% hits;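 active = all replicates at 75% or more, or half of them and the mean; inconclusive = half reach 75% but not the mean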;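 note: 0% = cytokine-treated negative control wells and 100% = positive control rescue; higher means more ATP so stronger rescue from cytokine killing; wells of about 40 µL received 100 nL stock; the first replicate is given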
The depositor's hits bear a star; ? = inconclusive; nt = no result given.

structure	A1 inh	LANA-H2A inh	B2AR ag	Calb FLC	T cruzi repl	RanGTP-Impb inh	UCH37 inh	Beta apoptosis
CCN(Cc1ccncc1)Cc1nc(Cc2ccccc2Cl)no1	1.2	-11	-6	1	21	?	-0.4	29
CN(CC(=O)Nc1c(Cl)cccc1Cl)C(=O)CNC(=O)C1CCCCC1	-1.3	-5.7	0	1	-15	1.2	-0.1	-2
Cc1ccc(C(=O)N/C(=C\c2cn(S(=O)(=O)N(C)C)c3ccccc23)C(=O)NCCN2CCOCC2)cc1	nt	nt	-7	28	-5	6.6	7.3	nt
O=C1CCCc2nc(N3CCN(Cc4ccccc4)CC3)ncc21	-0.3	4.0	-10	52	-12	0.2	5.8	-8
CCC(=O)c1ccc(OCC(=O)Nc2cc(S(=O)(=O)N3CCCCC3)ccc2N2CCN(CC)CC2)cc1	-1.0	4.9	-2	3	45	2.2	-2.7	9
Cc1ccc(S(=O)(=O)NC(=O)C2CCCCC2)cc1	0.3	1.2	5	nt	nt	nt	3.2	-4
CCN1C(=O)[C@H]2[C@@H](c3ccc(-c4cccc(Cl)c4)c(OC)c3)N[C@@](Cc3ccccc3)(C(=O)OC)[C@H]2C1=O	0.5	3.9	1	10	-3	-4.4	4.1	4
O=C(CSc1ccccn1)Nc1cccc([N+](=O)[O-])c1	-0.4	1.3	6	3	9	3.2	0.8	4
OCCNc1nc(Nc2ccccc2OC(F)(F)F)nc(N2CCCC2)n1	1.0	0.9	2	-19	-2	-5.8	1.8	-5
O=C(NCCN1C(=O)S/C(=C/c2ccccc2)C1=O)C1CCCN1C(=O)c1cccs1 (stereo not given)	0.5	-0.4	-11	2	6	1.3	0.5	-4
Cc1ccccc1-c1nc(CS(=O)CC(=O)NCCc2ccc(Cl)cc2)c(C)o1 (stereo not given)	1.6	-14	0	12	19	1.5	1.7	-5
C(=N/n1c2ccccc2c2ccccc21)/c1ccco1	-0.9	-2.1	7	0	14	0.8	nt	nt
CC(=O)c1c(C)[nH]c(C(=O)Nc2cccc(C#N)c2)c1C	-0.2	5.2	5	-5	-1	8.4	-0.4	-3
Cn1nc(C(F)(F)F)c(/C=N/OC(=O)c2ccccc2)c1SCc1ccc(Cl)cc1	0.7	-1.6	-6	9	-27	?	nt	-6
CCCC(=O)Nc1cc(C)c(NC(=O)c2cccs2)cn1	0.1	7.4	3	-16	-16	-2.0	3.4	-6
CN(C)CCCN(C(=O)c1ccc(S(=O)(=O)N(C)C2CCCCC2)cc1)c1nc2ccc(Br)cc2s1	0.8	0.4	33	3	43	4.1	2.8	2
O=Nc1onc(-c2ccc([N+](=O)[O-])cc2)c1NO	-0.1	-9.4	0	47	-4	0.4	5.0	0
Cc1nn(Cc2c(Cl)cccc2Cl)c(C)c1NC(=O)CCCn1nc([N+](=O)[O-])c(Cl)c1C	0.0	2.1	5	-4	49	-3.4	1.9	8
COCCn1c(SCC(=O)N(C)c2c(N)n(Cc3ccccc3)c(=O)[nH]c2=O)nnc1-c1cccc(C)c1	0.5	1.1	-5	1	-7	-7.2	2.3	-2
O=C(NNC(=O)c1ccccc1Br)c1cnccn1	0.9	-4.7	3	nt	nt	nt	3.2	-9
CCC1CCCCN1C(=S)Nc1ccc(OC(F)F)cc1 (stereo not given)	0.7	-3.3	4	-5	-6	?	4.6	-5
CCOC(=O)N1CCC(NC(=O)C2CCC(Cn3c(=O)[nH]c4ccccc4c3=O)CC2)CC1 (stereo not given)	0.9	4.4	-12	nt	nt	nt	1.9	4
c1ccc(N2CCN(c3nnnn3-c3ccccc3)CC2)cc1	0.5	0.6	3	-4	-1	4.9	0.0	0
COc1ccc(-n2nnc3c(=O)n(CC(=O)N4CCC(C)CC4)cnc32)cc1	0.6	4.1	-5	-5	-2	2.9	2.6	-6
CCCC(=NCCc1c(C)[nH]c2ccccc12)C1=C(O)CC(c2ccccc2)CC1=O (stereo not given)	1.4	-0.1	5	0	14	1.7	4.0	26
O=C(O)CC/C(=N\NC(=O)CNC(=O)c1cccc(Cl)c1)c1ccccc1	-0.2	-1.8	8	20	-10	1.4	nt	-4
Cc1ccc(-c2c[n+]3c(n2-c2ccccc2)SCC3)cc1	0.8	-4.5	0	?	66*	0.2	nt	106*
Cc1ccc(NC(=O)Cn2ccnc2)cc1C	0.3	-0.5	6	-14	-8	1.6	4.6	-3
CC(C)(C)c1ccc(C(=O)N2CCN(C(=O)c3cccs3)CC2)cc1	0.4	2.0	-1	nt	nt	nt	5.2	1
FC(F)(F)c1nnc2n1N=C(c1cccs1)CS2	0.7	-0.2	-12	-1	1	6.4	6.0	-11

New compounds follow:
structure	A1 inh	LANA-H2A inh	B2AR ag	Calb FLC	T cruzi repl	RanGTP-Impb inh	UCH37 inh	Beta apoptosis
Cc1csc(SCC(=O)Nc2ccccn2)n1	-0.6	5.0	0	4	-9	-0.2	3.1	-3
CC(C)(C)c1cnnn1-c1ccc(C=O)cc1	0.5	7.1	-6	2	-20	-0.9	2.1	nt
Cc1c(Br)c([N+](=O)[O-])nn1CC(=O)N(C)Cc1ccccc1	0.2	2.9	-2	-7	14	2.6	0.3	-1
COc1ccc(C(=O)N(C)Cc2nc3ccccc3c(=O)[nH]2)cc1S(=O)(=O)N1CCCC1	-0.7	2.4	-1	nt	nt	nt	-0.6	-4
CNS(=O)(=O)c1ccc(NS(=O)(=O)c2ccccc2F)cc1	0.3	-2.4	-13	-3	1	0.9	-1.6	-2
Cc1cccc(/C=N/NC(=O)Cn2nccc2C)n1	0.3	-7.4	-2	-1	-5	0.4	nt	-4
COc1cccc(CNS(=O)(=O)c2c(C(=O)N3CCCC3)c(C)n(C)c2C)c1	0.2	-0.5	5	-16	0	0.2	-0.1	-6
Cc1ccccc1C(=O)O/N=C/c1c(N2CCOCC2)n(C)c2ccccc12	0.4	2.8	-3	107*	49	-2.8	nt	63
Cn1c(SCc2ccccc2Cl)nc(C(F)(F)F)cc1=O	0.3	-2.6	3	65	-12	1.5	0.5	2
COc1ccc2c3c(c(=O)oc2c1OCC(=O)C(C)(C)C)CCCC3	0.3	-2.0	-8	-4	1	0.5	-22	-7
O=S(=O)(c1ccc(F)cc1)N1CCN(Cc2nnc(-c3ccccc3)o2)CC1	-0.3	-2.5	-3	nt	nt	nt	0.7	8
CCN1CCN(c2ccc(S(=O)(=O)N3CCCCC3)cc2NC(=O)/C=C/c2cccc(OC)c2OC)CC1	0.5	-0.6	28	1	38	4.5	1.2	-2
C/C(=C\C(=O)Nc1cscc1C)C(=O)O	0.0	-2.4	1	-4	0	-4.4	nt	-4
CN1CCN(C(=O)C2CCN(S(=O)(=O)c3cnc[nH]3)CC2)CC1	-0.2	2.4	2	4	-1	-0.1	4.0	-1
CCCc1[nH]c(=O)c(C#N)c2c1CCCC2	0.3	-1.1	2	12	1	-1.1	-7.7	-4
Cc1nccn1CCC(=O)Nc1ccc(Cl)cc1	0.3	1.7	0	-2	-9	-0.1	5.4	-11
CCc1ccccc1NC(=S)N1CCC(NC(=O)c2ccc(OC)cc2)CC1	0.2	1.0	4	-3	-9	0.7	2.5	1
Cc1nc2sc3c(c2c(=N)n1N)CCCC3	-0.3	5.5	-5	4	-7	-4.0	4.2	-5
Cc1cccc2c1CC(C)(C)N=C2C1=C(O)CC(C)(C)CC1=O	1.1	-3.6	-7	-10	7	2.5	5.3	-5
O=C1c2ccccc2C(=O)N1c1n[nH]c(CCc2ccccc2)n1	-0.1	9.0	15	-2	-6	-2.3	2.1	-1
O=C(N/C(=C\c1ccco1)C(=O)N1CCCC1CO)c1ccccc1 (stereo not given)	0.4	21*	-7	-4	-15	1.4	8.2	-1
O=C(NNC(=O)c1ccc[nH]1)c1cccc(C(F)(F)F)c1	-0.2	1.1	-3	-1	2	-0.3	0.6	1
Cc1ccc(CCNC(=O)C2CCCN(S(=O)(=O)c3cnc[nH]3)C2)cc1 (stereo not given)	0.4	1.4	2	0	-8	3.0	8.3	nt
C=C(C)C(=O)O[C@H]1C/C(C)=C\C(=O)/C=C(\C)[C@H](O)[C@@H]2OC(=O)C(=C)[C@@H]21	0.9	-6.3	19	30	13	1.4	nt	97*
COc1ccc(N(CC(=O)N/N=C/c2cc3ccc(OC)cc3nc2Cl)S(=O)(=O)c2ccccc2)cc1	0.1	-1.9	nt	14	7	10	nt	-3
CCC(C(=O)N1CCN(c2ccccc2OC)CC1)c1ccccc1 (stereo not given)	-0.1	-0.3	-4	-17	1	-0.3	1.9	nt
O=C(O)c1cccc(C(=O)c2cccc(C(=O)O)c2)c1	-0.1	1.7	0	19	-18	-2.7	-0.7	-4
COc1cc(C(=O)Oc2cccc(/C=N/NC(=O)c3cc(C)[nH]n3)c2)cc(OC)c1OC	-0.2	-3.3	29	3	-14	-2.2	nt	-3
O=C(CC1C(=O)NCCN1CC1CCCCC1)NCc1ccc(F)cc1F (stereo not given)	-0.3	-1.9	-10	-4	15	-0.8	-2.3	nt
CCCCCCn1c(O)c(/C=C2\C=NN=C2c2ccccc2)sc1=S	-0.1	nt	-3	2	12	-3.9	4.4	-4

Next part:
structure	A1 inh	LANA-H2A inh	B2AR ag	Calb FLC	T cruzi repl	RanGTP-Impb inh	UCH37 inh	Beta apoptosis
CC(=O)Nc1nnc(CSCc2ccc(F)cc2)s1	2.0	5.7	-4	-4	15	-4.7	-0.4	-7
Cc1ccc(C)n1-c1ccc(N(C)C)cc1	-0.8	-7.0	6	1	54	4.4	2.5	10
Cn1c(SCc2ccc3c(c2)OCO3)nnc1-c1ccccc1	-0.5	-2.2	0	5	-19	-1.2	5.6	nt
S=C(NCCCN1CCOCC1)Nc1ccc(Nc2ccccc2)cc1	0.9	3.1	-5	-10	11	-4.4	3.2	3
Cn1c(Cn2nnc(-c3ccccc3)n2)nnc1SCc1ccccc1Cl	-0.3	1.1	-3	14	0	-4.4	1.4	-10
O=C(Nc1cccc2ccccc12)NC1Cc2ccccc2C1	0.1	-0.9	1	-3	0	0.8	-1.8	-9
Cc1ccc(NC(=O)COC(=O)c2ccc3c(c2)OCCO3)cc1	0.9	-0.9	-8	nt	nt	nt	3.5	-6
COC(=O)c1cccc(C(=O)N2CCC(CO)(CCc3ccccc3)CC2)c1	-0.6	3.1	1	-10	0	1.6	0.5	-2
CC(C)Cn1cc(Cl)c(=O)n(CC(C)C)c1=O	1.9	-3.0	-5	-21	-1	?	-0.5	-1
CS(=O)(=O)c1nsc2nc(=O)c(/C=C3\C=Nc4ccccc43)c(N)n12	0.1	1.7	3	-3	-10	25*	2.1	3
CC1(C)C=C(c2ccc(O)cc2)CC(C)(C)N1	1.2	-1.8	3	15	-41	-1.0	-0.5	-5
C[n+]1cccc(C2C(C#N)=C(N)Oc3c2ccc2ccccc32)c1 (stereo not given)	0.3	-1.7	-1	1	-7	-12	5.9	nt
COc1ccc(Br)cc1CN(C)CC(=O)Nc1c(Cl)cccc1Cl	0.3	-1.1	-3	-30	26	1.5	5.4	-2
O=C1N=C(N2CCCC2)S/C1=C\C=C\c1ccccc1	-2.8	-0.6	-6	-8	4	4.0	12	-6
Nc1nc(CSC(=S)N2CCN(c3ccccc3)CC2)nc(Nc2ccc(F)cc2)n1	-0.3	0.4	3	0	6	-5.0	4.6	-1
O=C(CCc1ccccn1)NC1CCCc2c1cnn2-c1ccc(F)cc1F (stereo not given)	0.6	-1.0	-14	-6	3	1.8	3.6	-5
